HSD17B inhib = qHTS Assay for Inhibitors of HSD17B4, hydroxysteroid (17-beta) dehydrogenase 4; 3-hydroxyacyl-CoA dehydrogenase type-2 (Homo sapiens), Q99714; recombinant HSD17B10, NADH fluorescence kinetic; many of its hits are not listed in these tables; Potency, µM (series often up to 57.1 µM), without a hit: at the highest dose activity change, negative = inhibition, usual class: inhibitors; 75,000 compounds, 7.6% hits; AID 893, 2007; active = well fitted inhibition curve with a large enough effect; inconclusive = small, poorly fitted or top-dose-only effect; inactive = no such curve, though single readings can be large or run the other way;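 note: the protocol describes HADH2 (HSD17B10) and not the HSD17B4 of the title; nearly all actives have a fitted effect of over 70% in size; most hits overshoot -100% by far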
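Enzyme plus compound, 15 min room temperature; substrate mix added (NAD+ 1 mM, beta-hydroxybutyryl-CoA 90 uM final); plates read kinetically for NADH fluorescence. HADH2 was His-tagged, E. coli-derived, 20 nM.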
The depositor's hits bear a star; ? = inconclusive; & = joins results of further samples; [ ] = remark or other dose. % is set by controls: 0 for no effect and ±100 for the full control effect; potency is the fitted concentration of half-maximal effect.

SMILES	HSD17B inhib
CN(C)c1ccc(NC(=O)CN2C(=O)CN=C(c3ccccc3)c3ccccc32)cc1	-13%
O=C(O)[C@@H](O)[C@@H](O)[C@@H]1[O][Sb][O][C@@H]1CO	8%[11.4 µM]
Cc1ccc(-n2nc(C)c3c2NC(=O)CSC3c2ccc3c(c2)OCO3)cc1 (stereo not drawn)	4%
CCC(=O)N1c2ccc(S(=O)(=O)CCC(=O)N3CCC4(CC3)OCCO4)cc2CC1C (stereo not drawn)	7%
Cc1ncc(CC(=O)n2cc(C(=O)c3cc(Cl)ccc3O)cn2)s1	?
OCC(Cl)CCl (stereo not drawn)	1%
O=P(C(c1c[nH]c2ccccc12)N1CCOCC1)(N1CCOCC1)N1CCOCC1 (stereo not drawn)	-2%
O=C(O)CN1C(=O)CN=C(c2ccccn2)c2cc(Cl)ccc21	1%[11.4 µM]
CC(=NCc1ccco1)c1c(O)n(Cc2ccccc2)c(=O)[nH]c1=O	-18%
CC(C)n1cc2c3c(cccc31)[C@@H]1C[C@H](C(=O)O[C@@H](C)[C@H](C)O)CN(C)[C@H]1C2	?
O=[N+]([O-])c1ccc(Cl)c(Cl)c1Cl	4%
CCC12CN3CCN(CC(C3)/C1=N\O)C2	10%
CC1CC(Cl)CCC1C(=O)OC(C)(C)C (stereo not drawn)	1%
O=c1cccc2n1CC1CC2CN(Cc2ccc3c(c2)OCO3)C1 (stereo not drawn)	3%
CC(C)C(=O)c1cn(Cc2ccccc2C#N)c2ccccc12	5%
C=CCN1C(=O)C2(C(C(=O)OCC)=C(N)Oc3ccccc32)c2c1c1ccccc1oc2=O (stereo not drawn)	?
Oc1c(Br)cc(Br)cc1Br	-7%
C[C@@H]1O[C@H](OC2[C@@H](O)[C@H](O)C(O)[C@H](O)[C@H]2O)[C@@H](N)C[C@@H]1N=C(N)C(=O)O (stereo partly drawn)	11%[11.4 µM]
COC(=NC1CCCC1)C(O)c1c[nH]c2ccccc12 (stereo not drawn)	-8%
CCN1CCC2(CCNC2)C1 (stereo not drawn)	1%
O[C@@H]1CCCC[C@H]1N1CCC(c2ccccc2)CC1	-3%&-3%
c1ccc2c([C@@H]3CCN(CCN4CCOCC4)C3)c[nH]c2c1	1%[11.4 µM]
O=C(Oc1ccccc1)N1CCC[C@@]2(CCN(Cc3nccs3)C2)C1	7%
COc1cc(C2c3cc4c(c(O)c3CC3COC(=O)C32)OCO4)cc(OC)c1OC (stereo not drawn)	3%
Nc1ccccc1C(=O)OCCOc1ccccc1	32µM*

(cont.)
SMILES	HSD17B inhib
CCCN1CCc2cc(O)cc3c2[C@H]1Cc1ccc(O)c(O)c1-3	25µM*
CCCCN1C(=O)NC(=O)C2(Cc3cc(C)ccc3N(C)C2)C1=O (stereo not drawn)	13%
CC(C)c1nc2oc3c(NCc4ccccn4)ncnc3c2c2c1COC(C)(C)C2	1µM*
OCCN1C2CCC1CC(O)(c1ccc(F)cc1)C2 (stereo not drawn)	-3%
COc1ccc(CCNCc2ccccn2)cc1OC	6%
Brc1cccc(-c2ccccc2)c1	0%
CC(=NCCCn1ccnc1)c1c(O)n(C)c(=O)n(C)c1=O	5%
CC1=NN(c2ccc(S(=O)(=O)O)cc2C)C(=[OH+])[C@H]1N=Nc1cc(S(=O)(=O)O)ccc1C(=O)O.O.[Cr]	4%[11.4 µM]
CC(=NCCCN1CCOCC1)c1c(O)n(-c2ccccc2C)c(=O)[nH]c1=O	-7%
CCC12C=CCN3CCC4(c5ccc(OC)cc5N(C)C4[C@@](O)(C(=O)OC)C1OC(C)=O)C32 (stereo partly drawn)	0%
O=C(O)COc1ccccc1	5%
C[C@H]1O[C@H](O[C@H]2[C@H](O)[C@@H](O)[C@@H](O)[C@H](O)[C@@H]2O)[C@@H](N)C[C@@H]1NC(=N)C(=O)O	-1%
CNC(=O)ON(C(=O)NC)C1N(C)C(=S)SC1(C)C (stereo not drawn)	-2%
CCCCC1(C2CCCC2)Cc2cc(OCCCC(=O)O)c(Cl)c(Cl)c2C1=O (stereo not drawn)	?
Cc1ccc(C2N(c3cc(C)on3)C(=O)C3CCCN32)cc1 (stereo not drawn)	-1%
CCC(=O)O[C@@](Cc1ccccc1)(c1ccccc1)[C@@H](C)CN(C)C	2%[25.6 µM]
C[C@H]1CCCC=CC2C[C@H](O)C[C@@H]2[C@H](O)/C=C\C(=O)O1 (stereo partly drawn)	-11%
COc1ccc2c(c1OC)C(=O)OC2C1c2cc3c(cc2CCN1C)OCO3 (stereo not drawn)	?
CN=C(SCc1ccccc1)c1c(O)n(C)c(=O)n(C)c1=O	5%
O=C1CC(=O)N(c2ccc3c(c2)OCO3)C(=O)N1	-8%
O=P(O)(O)COc1ccccc1O	-2%
CC(C)(O)C1C2OC(=O)C1[C@]1(O)CC3O[C@@]34C(=O)OC2[C@@]14C (stereo partly drawn)	2%
CCCN1CCO[C@@H]2c3cc(O)ccc3OC[C@H]21	-4%&7%
Cc1ccc(N)c(N)c1	-2%
Nc1nnc(CCN2CCCCC2)s1	-6%

The last three entries of the part before come first, to join the parts.
SMILES	HSD17B inhib
CCCN1CCO[C@@H]2c3cc(O)ccc3OC[C@H]21	-4%&7%
Cc1ccc(N)c(N)c1	-2%
Nc1nnc(CCN2CCCCC2)s1	-6%
c1ccc(N=NNc2ccccc2)cc1	-22%
COc1ccc(CN2CCN(c3ccccc3)CC2)c(C)c1C	2%
COCc1cc(C2SCC(=O)Nc3c2c(=O)[nH]n3C(C)C)ccc1OC (stereo not drawn)	-2%
N#CC(C#N)=NNc1cccc(Cl)c1	-23%
C=CCn1c(O)c(C=Nc2ccc(OC)cc2C)c(=O)[nH]c1=O	?
O=C(C(Cc1ccccc1)NS(=O)(=O)c1cccc2nsnc12)N1CCC2(CC1)OCCO2 (stereo not drawn)	9%
CN1[C@@H]2CC[C@H]1CC(NC(=O)c1nn(C)c3ccccc13)C2 (stereo partly drawn)	20µM*
CCCC(C)(COC(N)=O)COC(N)=O	-6%
CC(C)CON=O	0%
CC1C(=O)OC2CCN3CC=C(COC(=O)[C@](C)(O)[C@]1(C)O)C23 (stereo partly drawn)	1%
O=C(Cn1c(=O)c(C(F)(F)F)nc2ccccc21)N1CCC2(CC1)OCCO2	25µM*
Cl/C=C/CCl	3%
CCCN1CCC[C@H](c2cccc(C#N)c2)C1	3%
CCCC(C)(COC(N)=O)COC(=O)NC(C)C (stereo not drawn)	-16%
O=P(O)(OP(=O)(O)c1ccccc1)c1ccccc1 (tested in a mixture with another compound)	3%[11.4 µM]
CC(C)c1cccc(C(C)C)c1OCCn1ccnc1	1%
Cc1ccc(C2CC(=O)C(C=NCCN3CCN(C(=O)Cc4ccccc4)CC3)=C(O)C2)cc1 (stereo not drawn)	0%
Cc1ccc(OCC(=O)N2CCN(CC3CC4C=CC3C4)CC2)cc1 (stereo not drawn)	-1%
CC(c1ccccc1)n1cncc1C(=O)N1CCCC1=O (stereo not drawn)	2%
C=C(CC1(C(C)NP(=O)(c2ccccc2)c2ccccc2)CC1)c1ccccc1 (stereo not drawn)	-10%
O=C(Cl)OCc1ccccc1	0%
O=C(CNS(=O)(=O)c1ccc(Br)s1)N1CCC2(CC1)OCCO2	0%
Clc1ccccc1	6%
COc1ccc(OC)c(C(O)C(C)N)c1 (stereo not drawn)	7%
CC1(C)C(O)CC(O)[C@]2(C)C1CC(O)[C@]1(C)C2CC[C@@]2(C)C(c3ccoc3)OC(=O)C3O[C@]312 (stereo partly drawn)	-4%

Some of the entries so far, with bars between the fields.
molecule | HSD17B inhib
C[C@H]1CCCC=CC2C[C@H](O)C[C@@H]2[C@H](O)/C=C\C(=O)O1 (stereo partly drawn) | -11%
COc1ccc2c(c1OC)C(=O)OC2C1c2cc3c(cc2CCN1C)OCO3 (stereo not drawn) | ?
CN=C(SCc1ccccc1)c1c(O)n(C)c(=O)n(C)c1=O | 5%
O=C1CC(=O)N(c2ccc3c(c2)OCO3)C(=O)N1 | -8%
O=P(O)(O)COc1ccccc1O | -2%
CC(C)(O)C1C2OC(=O)C1[C@]1(O)CC3O[C@@]34C(=O)OC2[C@@]14C (stereo partly drawn) | 2%
CCCN1CCO[C@@H]2c3cc(O)ccc3OC[C@H]21 | -4%&7%
Cc1ccc(N)c(N)c1 | -2%
Nc1nnc(CCN2CCCCC2)s1 | -6%
c1ccc(N=NNc2ccccc2)cc1 | -22%
COc1ccc(CN2CCN(c3ccccc3)CC2)c(C)c1C | 2%
COCc1cc(C2SCC(=O)Nc3c2c(=O)[nH]n3C(C)C)ccc1OC (stereo not drawn) | -2%
N#CC(C#N)=NNc1cccc(Cl)c1 | -23%
C=CCn1c(O)c(C=Nc2ccc(OC)cc2C)c(=O)[nH]c1=O | ?
O=C(C(Cc1ccccc1)NS(=O)(=O)c1cccc2nsnc12)N1CCC2(CC1)OCCO2 (stereo not drawn) | 9%
CN1[C@@H]2CC[C@H]1CC(NC(=O)c1nn(C)c3ccccc13)C2 (stereo partly drawn) | 20µM*
CCCC(C)(COC(N)=O)COC(N)=O | -6%
CC(C)CON=O | 0%
CC1C(=O)OC2CCN3CC=C(COC(=O)[C@](C)(O)[C@]1(C)O)C23 (stereo partly drawn) | 1%
O=C(Cn1c(=O)c(C(F)(F)F)nc2ccccc21)N1CCC2(CC1)OCCO2 | 25µM*
Cl/C=C/CCl | 3%
CCCN1CCC[C@H](c2cccc(C#N)c2)C1 | 3%
CCCC(C)(COC(N)=O)COC(=O)NC(C)C (stereo not drawn) | -16%
O=P(O)(OP(=O)(O)c1ccccc1)c1ccccc1 (tested in a mixture with another compound) | 3%[11.4 µM]
CC(C)c1cccc(C(C)C)c1OCCn1ccnc1 | 1%
Cc1ccc(C2CC(=O)C(C=NCCN3CCN(C(=O)Cc4ccccc4)CC3)=C(O)C2)cc1 (stereo not drawn) | 0%
Cc1ccc(OCC(=O)N2CCN(CC3CC4C=CC3C4)CC2)cc1 (stereo not drawn) | -1%
CC(c1ccccc1)n1cncc1C(=O)N1CCCC1=O (stereo not drawn) | 2%
C=C(CC1(C(C)NP(=O)(c2ccccc2)c2ccccc2)CC1)c1ccccc1 (stereo not drawn) | -10%
O=C(Cl)OCc1ccccc1 | 0%
O=C(CNS(=O)(=O)c1ccc(Br)s1)N1CCC2(CC1)OCCO2 | 0%

The listing continues.
SMILES	HSD17B inhib
CN(C)[C@@H]1C(=O)C(C(N)=O)=C(O)[C@@]2(O)C(=O)C3=C(O)c4c(O)cccc4[C@@](C)(O)[C@H]3[C@H](O)[C@@H]12	6.3µM*
O=c1[nH]c(=O)n(C2CCCCC2)c(O)c1C1NCCc2ccccc21 (stereo not drawn)	-23%
O=P(OCC(F)(F)C(F)F)(N1CCOCC1)N1CCOCC1	2%
Cc1nc2ccccc2c(=O)n1-c1ccccn1	6%
Nc1ccc(Cl)cc1N	0%
Cc1ccc(C2C(S(C)(=O)=O)=C(O)C(=O)N2c2ccccc2)cc1 (stereo not drawn) (tested in a mixture with another compound)	3%
CCOC(=O)C1OC1(C)c1ccccc1 (stereo not drawn)	4%
c1ccc([C@H]2CNCc3ccccc32)cc1	-13%
CCC(=NCc1ccco1)c1c(O)n(C2CCCCC2)c(=O)[nH]c1=O	-16%
CCC(=NCCCN(C)C)c1c(O)n(-c2ccc(OC)cc2)c(=O)[nH]c1=O	10%
Cn1c(O)c(C=NCc2ccco2)c(=O)n(C)c1=O	-1%
OCCOCCO	-1%
O=c1cccc2n1CC1CC2CN2CCCCC12 (stereo not drawn)	5%
O=C(Cc1ccccc1)Oc1cccc(N2C(=O)CCC2=O)c1	5%
Cc1cccc(CS(=O)(=O)Cc2ccc(C(=O)N3CCC4(CC3)OCCO4)o2)c1	7%
O=c1[nH]c(=O)n(Cc2ccc(F)cc2)c(O)c1C=NCCCN1CCOCC1	1%
CC12CN3CC(C)(CN(C1)C3c1cccnc1)C2=O (stereo not drawn)	0%
CCOC(=O)C1=C(N)Oc2cc(C)oc(=O)c2C12C(=O)N1c3c(cc(OC)cc32)C(C)=CC1(C)C (stereo not drawn)	1%
O=C(O)[C@H]1CCN1	-2%
CC(C)NP(=O)(NC(C)C)OP(=O)(NC(C)C)NC(C)C	-3%
CCOCCCN=Cc1c(O)n(Cc2ccccc2)c(=O)[nH]c1=O	7%
O=C(c1cc2nc(-c3ccccc3)cc(-c3ccccc3)n2n1)N1CCC2(CC1)OCCO2	32µM*
CCc1cccc(CC)c1N(COC)C(=O)CCl	4%
C[C@@H]1[C@H]2C=C[C@@H]1[C@@H](c1c3ccc(=O)c(O)c-3oc3c(O)c(O)ccc13)[C@@H]2C(=O)O	1µM*
COc1ccc(/C=C/c2cc(O)cc(O)c2)cc1	5%
NC1(P(=O)(O)O)CCCCC1	7%[11.4 µM]
C[C@H]1CCCC(=O)CCC/C=C/c2cc(O)cc(O)c2C(=O)O1	-11%&1%&-15%
CCCN1CCO[C@@H]2c3cc(O)ccc3OC[C@@H]21	?
O=C(O)CCC1NCC2CC1CN1CCCCC21 (stereo not drawn)	-3%

High-throughput results: PubChem BioAssay, National Center for Advancing Translational Sciences (NCATS)

A portion of the library; the hit share may differ from the screen's.
